Source: PubChem BioAssay (National Center for Advancing Translational Sciences (NCATS))
VDR inhibitor = inhibitors of human vitamin D receptor; P11473; VDR-SRC2-3 peptide fluorescence polarization, 2 h; Potency, µM, without a hit: max response, negative = inhibition, most hits filed as inhibitors; 0.93% of 400,000 active; AID 504847; active = well fitted inhibition curve with a large enough effect; inconclusive = small, poorly fitted or top-dose-only effect, or another doubt; inactive = no such curve, though single readings can be large or run the other way; also: series mostly up to about 120 µM
Target sequence (P11473 whole entry, looked up): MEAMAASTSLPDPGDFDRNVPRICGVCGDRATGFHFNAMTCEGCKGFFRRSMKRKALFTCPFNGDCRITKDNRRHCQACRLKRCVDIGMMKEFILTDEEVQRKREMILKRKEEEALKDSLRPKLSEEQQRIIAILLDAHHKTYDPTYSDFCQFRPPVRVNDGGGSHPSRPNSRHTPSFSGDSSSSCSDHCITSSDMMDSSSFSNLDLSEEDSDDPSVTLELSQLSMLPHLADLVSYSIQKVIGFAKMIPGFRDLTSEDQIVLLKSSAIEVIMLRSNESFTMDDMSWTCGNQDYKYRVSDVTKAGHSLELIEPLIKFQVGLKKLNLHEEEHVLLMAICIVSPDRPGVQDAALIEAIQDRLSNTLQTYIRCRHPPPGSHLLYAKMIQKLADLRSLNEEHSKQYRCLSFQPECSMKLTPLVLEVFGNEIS
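FP read-out; VDR + SRC2-3 coactivator peptide; 23 nl compound by pintool; 2 h RT incubation; reagents held at 4 deg C, protected from light.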
An asterisk follows results filed as active; ? = inconclusive; & = joins results of further samples; [ ] = remark or other dose. % is scaled to controls: 0 for no effect and ±100 for the full control effect; potency is read from the fitted curve at half-maximal effect. This is a subset. The share of hits here may be higher or lower than overall.

SMILES	VDR inhibitor
N#C/C(=C/c1ccc([N+](=O)[O-])cc1)C(N)=O	79µM*
O=C(c1ccc2c(c1)OCO2)N(Cc1cccs1)C1(C(=O)NC2CCCCC2)CCCCC1	-17%
COc1ccc(/C=N/NC(=O)c2cccc3ccccc23)c(OC)c1OC	20%
COc1cccc(N2CCN(C(=O)CCCCCNc3nc(=S)[nH]c4ccccc34)CC2)c1	-5%
Cc1nc([N+](=O)[O-])cn1Cc1cccc2ccccc12	6%
COC1(OC)N=C(NC(=O)Nc2ccccc2)C2(C#N)C(c3ccccc3)C12C#N (stereo not drawn)	?
COC(=O)CC(NS(=O)(=O)c1cccs1)c1ccccc1Cl (stereo not drawn)	-4%
CCCOc1ccc(C(C)=O)cc1CSc1nc(O)cc(=O)[nH]1	-11%
COc1ccc(C(CNC(=O)CNC(=O)c2cccc(Cl)c2)N2CCCC2)cc1 (stereo not drawn)	-14%
CCOC(=O)CCSc1nc(C)cc(C(F)(F)F)c1C#N	10%
O=C(COc1ccc(F)cc1)Nc1ccc(Cl)c(-c2nc3ccccc3[nH]2)c1	3%
CC(/C=C/c1ccc2c(c1)OCO2)=N/NC(=O)c1ccc(C)nc1	-5%
COC(=O)c1cc(NC2c3ccccc3C(=O)N2c2ccc(Cl)cn2)cc(C(=O)OC)c1 (stereo not drawn)	-2%
Cc1ccc(NC(=O)CN2C(=O)NC(C)(c3ccccc3)C2=O)c(C)c1 (stereo not drawn)	1%
C=CCn1c(C)c(C(C)=O)c(N2CCCC2)nc1=S	9%
CSc1nc(=S)cc(C)[nH]1	50µM*
N#Cc1ccsc1NC(=O)C1CCCN1S(=O)(=O)c1cccs1 (stereo not drawn)	5%
COc1cccc(C(=O)N(Cc2ccc(C)o2)C2CCS(=O)(=O)C2)c1 (stereo not drawn)	8%
CCC(C)(C)NC(=O)c1ccc(Sc2nncn2C)c([N+](=O)[O-])c1	-7%
O=C(NCc1cccnc1)/C(=C/c1ccc([N+](=O)[O-])cc1)NC(=O)c1ccccc1	-2%
O=C(COC(=O)c1cc(Br)ccc1O)NCC1CCCO1 (stereo not drawn)	8%
COc1ccc(CNC(=O)NS(=O)(=O)c2ccc(C)cc2)cc1	5%&-9%
Cc1cccc2c1NC(=O)C21N2CCCC2C(C(=O)c2ccc3ccccc3c2)C12C(=O)Nc1ccccc12 (stereo not drawn)	148%[activator]
Cc1cccc(NC(=O)COC(=O)c2cc3ccccc3oc2=O)c1	-15%
CN(C(=O)c1ccccc1C(=O)c1ccccc1)C1CCS(=O)(=O)C1 (stereo not drawn)	-12%
CN1CC(=O)N/C1=N\C(=O)Nc1ccc2c(c1)N(C)C(=O)CS2	-13%
Cc1ccc(C(C)C)cc1S(=O)(=O)NCc1ccccn1	-13%
CCN(C(=O)c1cc2c(=O)[nH]c3ccc(C)cc3c2s1)c1ccccc1C	-3%
Nc1ccc2c(c1)C(=Cc1cccnc1)c1ccccc1-2	-7%
CS(=O)(=O)NCCSCc1ccc(Cl)cc1	-4%
CCCC1=NN2C(=N)/C(=C\c3cc(C)n(-c4cc(C)cc(C)c4)c3C)C(=O)N=C2S1	-4%
Cc1cc(C)c(C#N)c(SCc2nc3ccccc3c(=O)[nH]2)n1	3%
CC1=CC(=C(C#N)c2nc3ccccc3s2)C=C(C)N1Cc1ccco1	8%
c1ccc(CN(Cc2ccco2)C(c2ccncc2)c2nnnn2C2CCCC2)cc1 (stereo not drawn)	28µM*
CCOC(=O)c1ccccc1NC(=O)NCc1c(-n2cccc2)sc2c1CCCC2	10%
Cc1nc2ccccc2c(=O)n1/N=C/C=C/c1ccccc1	6%
CCCCn1c(N)c(N(CCOC)C(=O)CN(C)S(=O)(=O)c2ccc(Cl)cc2)c(=O)[nH]c1=O	-15%
Cc1ccccc1-c1cc(Nc2ccc(F)cc2)ncn1	?
CCOc1ccc(C)cc1S(=O)(=O)Nc1cccnc1	6%
CCc1ccccc1NC(=O)Nc1ccc2c(c1)N(CC)C(=O)c1ccccc1S2	5%
Cc1cc(C)cc(N(CC(=O)NCc2ccccc2Cl)S(=O)(=O)c2c(C)noc2C)c1	-13%
Cc1cc(NS(=O)(=O)c2ccc(NC(=O)c3ccc(F)cc3)cc2)nc(C)n1	-4%
CCCc1nnc(N2C(=O)c3cccc4cccc(c34)C2=O)s1	6%
Cc1ccc(S(=O)(=O)N2CCC3CC2c2cc(Cl)ccc23)cc1 (stereo not drawn)	-2%
Cc1csc(SCC(=O)Nc2sc3c(c2C#N)CCC3)n1	-9%
CCCc1ccc(OCC(O)CN2CCN(c3ccccc3)CC2)cc1 (stereo not drawn)	0%&4%
CCn1c(=NC(=O)C2COc3ccccc3O2)sc2c(OC)ccc(OC)c21 (stereo not drawn)	-12%
COc1ccccc1CCNC(=O)C(=O)NCC(c1ccco1)S(=O)(=O)c1ccc(F)cc1 (stereo not drawn)	3%
CC1(C)CC(=O)N(c2ccccc2)C1(C)O (stereo not drawn)	2%
COC(=O)[C@@H]1C[C@@H]2CC[C@@H](O)C[C@@H]2N1Cc1ccc(OC)cc1	-9%

(next part)
SMILES	VDR inhibitor
COc1ccc(CCNC(=O)COC(=O)c2cnccn2)cc1	11%
COc1ccc(C2OC(=O)C(C)(C)C(=O)C2(C)C)cc1OC (stereo not drawn)	5%
O=C(CN(Cc1ccc(Br)cc1)S(=O)(=O)c1ccccc1)NCc1ccncc1	-7%
Cc1cc2nc(NCCCO)n(CC(=O)c3cc(C(C)(C)C)c(O)c(C(C)(C)C)c3)c2cc1C	-11%
COc1ccc2c(c1)O[C@@H](c1ccc3c(c1)OCO3)[C@H](OC(=O)NCc1ccco1)C2=O	?
CC(Sc1nnc(Cc2cccs2)n1C1CCCCC1)C(N)=O (stereo not drawn)	-3%
CCOc1cc(S(=O)(=O)NCc2ccccc2)ccc1F	-7%
Cc1cc(-n2nc3ccccc3n2)c(O)c([N+](=O)[O-])c1	5%
CC(c1nnc(SCC(=O)Nc2cc([N+](=O)[O-])ccc2F)n1Cc1ccccc1)N(C)C (stereo not drawn)	12%
CCCCn1c(-c2c(Cl)c(C)nn2C)n[nH]c1=S	-11%
COc1ccc(CN(C)C(=O)c2ccc3c(=O)n4c(nc3c2)CCC4)c(OC)c1	-5%
Nc1nc2ncc(CNc3ccc(C(=O)NC(CCC(=O)O)C(=O)O)cc3)nc2c(=O)[nH]1 (stereo not drawn)	-5%&-4%&9%
O=C(COC(=O)Cc1ccc(F)cc1)NCc1ccco1	1%
O=C(CC1C(=O)Nc2ccccc2N1CC(=O)N1CCCC1)Nc1ccc(Br)cc1 (stereo not drawn)	2%
CC(C(=O)NC1C(=O)N2C(C(=O)O)=C(CSc3nnnn3C)CSC12)n1cc(Br)cn1 (stereo not drawn)	-15%
COc1cc(NC(=O)C2CCC(CNc3c(N4CCCCC4)c(=O)c3=O)CC2)cc(OC)c1 (stereo not drawn)	4%
COc1ccc2[nH]c(=O)c(CN(CCCN(C)C)C(=O)Nc3ccccc3)cc2c1	11%
O=C(CCc1ccc(S(=O)(=O)N2CCOCC2)cc1)N/N=C/c1ccc(O)c(O)c1O	-1%
O=C(COC(=O)c1ccccc1-n1cnnn1)c1ccccc1	10%
O=C(CCSc1ccc(F)cc1)NNC(=O)c1ccccc1Cl	5%
COc1ccc(NCc2nnc(SCC(=O)Nc3cc(C(F)(F)F)ccc3Cl)o2)cc1	-6%
Cc1c(-c2ccccc2)n[nH]c1C(=O)NN	-9%
COc1ccccc1C(=O)N1CCN(C(=O)c2oc3ccc(C)cc3c2C)CC1	1%
O=C(NCc1ccccc1Cl)c1ccc(CSc2nc3ccncc3[nH]2)cc1	19%
CCOC(=O)N1CCN(C(=O)c2ccc(CS(=O)Cc3ccccc3Cl)o2)CC1 (stereo not drawn)	15%
CCN(CC)C(=O)c1ccc2c(=O)n(CCOC)c(=S)[nH]c2c1	-18%
COc1ccc([C@H]2CC(=O)C=C(c3cccc(Cl)c3O)C2)cc1OC	0%
CCOC(=O)Cn1c(C(C)=O)nc2ccccc21	-7%
COc1ccccc1Nc1ccc(S(=O)(=O)N2CCCCC2)cc1[N+](=O)[O-]	10%
COc1cc(S(=O)(=O)n2ccc(C)n2)c(OC)cc1Cl	12%
CCCCn1c(SCC(=O)Nc2ccc3c(c2)CCC3)nc2ccccc2c1=O	-2%
Cc1ccccc1NC(=O)CN1C(=O)S/C(=C/c2cccnc2)C1=O	-2%
Cc1cccc(CN2C(=O)c3ccccc3Sc3ccc(C(=O)NCCc4ccccc4)cc32)c1	-9%
CC(C)N(CC#CCC(O)(c1ccccc1)c1ccccc1)CCO	21%
CCC(C)NC(=O)Nc1ccccc1F (stereo not drawn)	1%
CN(c1ccc(C(=O)NCc2ccco2)cc1)S(C)(=O)=O	-6%
COc1ccc([C@@H]2C(C#N)=C(N)S[C@@H](c3ccccc3)[C@@H]2[N+](=O)[O-])cc1	-12%
COc1cccc(C(=O)NC2CC3CCCC(C2)N3CC(=O)Nc2ccc(N(C)C)cc2)c1 (stereo not drawn)	-3%
CCCCCn1cnc2sc(-c3ccccc3)cc2c1=O	3%
COc1cc(C(=O)NCC(=O)Nc2c(C)cccc2C)ccc1OCc1ccccc1	-2%
COc1cccc(C(=O)Nc2cccc(-c3nnc(-c4ccco4)o3)c2)c1	2%
Cc1cc2c(c(=O)n1Cc1ccccn1)C(c1ccc3c(c1)OCO3)C(C#N)=C(N)O2 (stereo not drawn)	-7%
O=C(NC1CCCC1)C(c1ccsc1)N(Cc1ccccc1)C(=O)Cc1cccs1 (stereo not drawn)	6%
Nc1cc(=O)[nH]c(SCC(=O)Nc2ccccc2Sc2ccc(Cl)cc2)n1	8%
Cc1ccc(C(=O)N2CCN(Cc3nc4sc5c(c4c(=O)[nH]3)CCCC5)CC2)cc1	-16%
Nc1c(C(=O)Nc2ccccc2F)sc2nc(Cc3ccccc3)cc(C(F)(F)F)c12	-2%
N#Cc1cc([N+](=O)[O-])ccc1NCCN1CCOCC1	-15%
COc1ccc(Cn2c(SCC(=O)NCc3ccccc3)nc3ccccc32)cc1	0%
Nc1ncc2c(n1)CCN(c1ccc([N+](=O)[O-])cc1)C2	4%
CCOC(=O)c1cnc2c(C)c(Cl)ccc2c1N1CCOCC1	-2%

Going on with the list.
SMILES	VDR inhibitor
O=C(CCn1nnc2ccccc21)OCC(=O)c1ccc([N+](=O)[O-])cc1	-14%
COc1cccc(C(C2=C(O)CC(C)(C)CC2=O)C2C(=O)CC(C)(C)CC2=O)c1 (stereo not drawn)	?
CCOC(=O)C(C)(C)Oc1cccc2c1S(=O)(=O)c1ccccc1-2	-2%
Cc1nc2ccccc2c(=O)n1NC(=O)c1ccccc1F	-12%
CCCn1c(C(C)C)n[nH]c1=S	-5%
CCSc1nnc(C)c2ccccc12	11%
CCCN1Cc2cccc(C(=O)Nc3ccc4c(c3)OCO4)c2C1=O	2%
O=C(c1c[nH]c2ccc(S(=O)(=O)N3CCOCC3)cc2c1=O)N1CCCC1	-6%
Cc1ccc(N(C(=O)c2csnn2)C(C(=O)NCc2ccccc2)c2ccccn2)cc1 (stereo not drawn)	-6%
O=c1c2ccccc2cnn1CCOc1ccccc1	-3%
COc1cc(/C=C/C(=O)OCC(=O)Nc2nnc(-c3ccccc3)o2)cc(OC)c1OC	-26%
Cc1noc(C)c1CSc1nc2ccccc2n1CCc1ccccc1	79µM*
O=C(CN(C(=O)CCC(=O)Nc1ccccn1)c1ccc(F)cc1)NCc1ccc(F)cc1	-1%
COc1ccc(NC(=S)N2CCN(c3ccccn3)CC2)cc1	10%
CS(=O)(=O)N(CC(=O)Nc1ccc(S(=O)(=O)N2CCOCC2)cc1)c1ccccc1Cl	-24%
O=c1c2ccccc2cnn1Cc1n[nH]c(=S)n1-c1ccccc1	10%
COc1ccc(CCNC(=O)c2cc(-c3ccc(Cl)cc3)on2)cc1OC	-21%
Clc1ccc2nc(-c3ccccc3)[nH]c2c1	-15%
CCOc1ccc(-c2nnc(SCC(=O)Oc3ccccc3)o2)cc1	-3%
Cc1ccccc1N(Cc1cc(=O)[nH]c2ccccc12)C(=O)C(C)C	-10%
Cc1c(Cl)cccc1NC(=O)CCN1CCCCC1	5%
COc1ccc(-c2cc(C(=O)N3CCCCCC3)no2)cc1	-1%
